AmpC inh no det = inhibitors of E. coli AmpC beta-lactamase without detergent | P00811 | Potency, µM (titrated, usually from 28.7 µM), for the others: at the highest dose activity change, negative = inhibition | AID 585 | AmpC nitrocefin hydrolysis, absorbance 480 nm, no detergent; potencies from a single point are estimates | 71,000 tested, 1.8% active; active = falling curve, for most hits resting on a single point; inconclusive = weak or doubtful change; inactive = flat or rising curve; also: % of control where 0% means no effect; about half of the hits show no inhibition at the top dose; a quarter of the inactives give rising signals
Target sequence (P00811 whole entry, looked up): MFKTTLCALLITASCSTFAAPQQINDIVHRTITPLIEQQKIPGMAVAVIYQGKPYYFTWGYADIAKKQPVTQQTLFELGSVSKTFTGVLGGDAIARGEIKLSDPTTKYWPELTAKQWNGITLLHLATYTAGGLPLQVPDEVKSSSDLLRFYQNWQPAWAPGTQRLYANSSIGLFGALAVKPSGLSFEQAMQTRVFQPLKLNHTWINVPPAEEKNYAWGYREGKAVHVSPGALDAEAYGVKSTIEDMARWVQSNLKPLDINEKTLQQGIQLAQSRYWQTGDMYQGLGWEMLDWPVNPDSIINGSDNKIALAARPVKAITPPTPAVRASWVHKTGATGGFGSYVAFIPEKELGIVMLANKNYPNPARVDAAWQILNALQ
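Enzyme, pH 7.0 phosphate. Compound titrations were pre-incubated with AmpC for 15 min at room temperature before nitrocefin (stock 800 uM) addition; product formation was recorded at 480 nm every 20 s for 4 min.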
* = called active by the depositor; ? = inconclusive; [ ] = dose if it differs, or a comment. Potency is read from the fitted curve at half-maximal effect.

SMILES	AmpC inh no det
Cc1ccc(S(=O)(=O)Cn2nnnc2C(CC(C)C)N2CCN(c3ccc(F)cc3)CC2)cc1 (centres undefined)	14%
Cc1ccc2nc(CSc3nnc(Cc4cccs4)n3C3CCCCC3)cc(=O)n2c1	88%
O=C(c1ccc(Cl)c(F)c1F)N1CCCC1	3%
CC1(C)CC(=O)C([C@H]2C3=C(CC(C)(C)CC3=O)Oc3ccccc32)C(=O)C1	5%
O=C(NCc1ccco1)c1ccc2c(c1)C(=O)N(Cc1ccccc1)C2=O	-8%
CCc1nnc(NC(=O)CN2CCN(c3nc(-c4ccccc4)cs3)CC2)s1	125%
COc1ccc(C2CC(c3ccc(F)cc3)Nc3nc(N)nn32)cc1 (centres undefined)	4µM*[single pt active]
O=C1C2CC=CCC2C(=O)N1c1ccc(OCC(O)Cn2nnc3ccccc32)cc1 (centres undefined)	29%
O=C(O)CCSc1nc2ccc(Br)cc2[nH]1	-3%
COc1ccc2[nH]c(=O)c(CN(CCN(C)C)C(=O)NCc3ccccc3)cc2c1	18%

An excerpt of these results, with each value named:
mol: Cc1ccc2nc(CSc3nnc(Cc4cccs4)n3C3CCCCC3)cc(=O)n2c1
  AmpC inh no det: 88%
mol: O=C(c1ccc(Cl)c(F)c1F)N1CCCC1
  AmpC inh no det: 3%
mol: CC1(C)CC(=O)C([C@H]2C3=C(CC(C)(C)CC3=O)Oc3ccccc32)C(=O)C1
  AmpC inh no det: 5%

New compounds follow
SMILES	AmpC inh no det
O=C(OCCOCCO)c1ccccc1Nc1cccc(C(F)(F)F)c1	72%[12.8 µM]
CCOc1cccc(-c2nnc(SCC(=O)Nc3cc(C)ccc3OC)n2N)c1	60%
CCCNc1nc2c(c(=O)n(C)c(=O)n2C)n1CCc1ccccc1	17%
CCC/C=C(\CCC)C(NC(=O)CCc1ccccc1)c1ccc(C(F)(F)F)cc1 (centres undefined)	-21%
O=C(CCNS(=O)(=O)c1cccc2nsnc12)NCCC1=CCCCC1	15%
O=C(CCC1CCCC1)NCCCN1CCOCC1	16%
CN(C(=O)COC(=O)C1CCN(S(=O)(=O)c2cccs2)CC1)C1CCS(=O)(=O)C1 (centres undefined)	2%
Cc1sc2ncn(-n3c(C)ccc3C)c(=O)c2c1C	10%
COC(=O)CN(c1ccc2c(c1)OCO2)S(C)(=O)=O	-4%
COc1ccc(C[C@@H]2NC[C@H](O)[C@@H]2OC(C)=O)cc1	-1%[12.8 µM]
O=C1NC(=O)C2(CCc3ccccc32)N1 (centres undefined)	-5%
O=C(CSc1nnc(-c2cccs2)n1-c1ccccc1)N1CCOCC1	43%
O=C(O)/C=C\C(=O)Nc1ccc2c(c1)C(=O)c1cc(F)ccc1-2	-6%[5.75 µM]
CS(=O)(=O)N(CCc1ccccc1)CC(=O)NCc1ccc2c(c1)OCO2	21%
OC1(c2cccc(F)c2)CCN(Cc2ccncc2)CC1	-6%
COc1cc(C)c(C)cc1S(=O)(=O)N1CCN(Cc2ccc3c(c2)OCO3)CC1	72%
O=c1c(-c2cc(F)cc(F)c2)nc2cnc(Oc3ccccc3)nc2n1C[C@H]1CCCO1	6%
CC(C)c1ccc(Nc2nc(NCc3ccco3)nc(N3CCOCC3)n2)cc1	22%
c1ccc(Cn2nnc3c(N4CCCCCC4)ncnc32)cc1	63%
CC(C)Oc1ccc2c(=O)c3cc(C(=O)O)ccc3oc2c1	4%

At a glance, part of the list above.
SMILES	AmpC inh no det
O=c1c(-c2cc(F)cc(F)c2)nc2cnc(Oc3ccccc3)nc2n1C[C@H]1CCCO1	6%
CC(C)c1ccc(Nc2nc(NCc3ccco3)nc(N3CCOCC3)n2)cc1	22%
c1ccc(Cn2nnc3c(N4CCCCCC4)ncnc32)cc1	63%
CC(C)Oc1ccc2c(=O)c3cc(C(=O)O)ccc3oc2c1	4%

Carrying on.
SMILES	AmpC inh no det
COC(=O)c1ccc(-c2cc(C(=O)O)c3cc4c(cc3n2)OCCO4)cc1	-12%
Cc1cc(NC(=O)c2cnn3cccnc23)no1	-7%
COc1ccc2nc(NC(=O)CN3CCN(C)CC3)sc2c1	-4%
C[C@@H]1O[C@H](O[C@@H]2C[C@@H](O)[C@]3(CO)[C@H]4[C@H](O)C[C@]5(C)[C@@H](C6=CC(=O)OC6)CC[C@@]5(O)[C@@H]4CC[C@]3(O)C2)[C@@H](O)[C@H](O)[C@H]1O	9%
CCN1CCN(c2c(Cl)cccc2NC(=O)c2ccc(Br)o2)CC1	38%
CCOCCCn1c(=N)c(C(=O)NCc2ccc3c(c2)OCO3)cc2c(=O)n3cccc(C)c3nc21	74%
Cn1c(=O)c2cn(-c3cccc4ccccc34)cc2n(C)c1=O	55%
COc1cc(OC)cc(C(=O)NC(C(=O)NCCN(C)C)C23CC4CC(CC(C4)C2)C3)c1 (centres undefined)	109%
COc1ccccc1N1CCN(C(c2ccccc2Cl)c2nnnn2C(C)(C)C)CC1 (centres undefined)	103%
O=c1[nH]c2ccccc2nc1-c1cccs1	-11%
CCC1C(=O)n2nc(-c3ccccc3)cc2N=C1C (centres undefined)	-17%
CNc1nc(-c2ccc3c(c2)OCO3)nc2ccccc12	6%
O=C(CC(Cc1ccccc1)C(=O)O)NCCc1ccc2c(c1)OCO2 (centres undefined)	-6%
CC(=O)S[C@@H]1CC2=CC(=O)CC[C@@]2(C)[C@H]2CC[C@]3(C)[C@H](CC[C@@]34CCC(=O)O4)[C@H]12	54%
Cc1cc(C)n(-c2ccn(Cc3ccc(Cl)cc3Cl)c(=O)n2)n1	45%
Cc1ccc(Nc2cc(C)nn2-c2nc(C)cc(C)n2)cc1	114%
Cn1c(SCC(=O)N2CCCCC2)nc2cccnc21	4%
O=C1CCCc2c1[nH]c1ccc(CN3CCCCC3)cc21	-10%
CCCCc1ccc(NC(=O)c2c(C)noc2C)cc1	0%
CO[C@@H]1/C=C\O[C@]2(C)Oc3c(C)c(O)c4c(O)c(c(CN(C)C)c(O)c4c3C2=O)NC(=O)/C(C)=C\C=C[C@@H](C)[C@@H](O)[C@H](C)[C@@H](O)[C@H](C)[C@H](OC(C)=O)[C@@H]1C	72%[5.75 µM]
COc1ccc(-c2cc(CCCC(=O)NCCc3ccc(OC)cc3OC)no2)cc1	40%
Cc1ccc(-c2nnc(N(C)C(=O)c3ccccn3)s2)cn1	2%
COc1cccc(C2/C(=C(/O)c3ccncc3)C(=O)C(=O)N2CCCN(C)C)c1 (centres undefined)	-12%
COc1cc(C(=O)Nc2ccc(S(=O)(=O)Nc3cc(C)on3)cc2)cc(OC)c1OC	-17%
CC(C)(/C=N/O)/[N+]([O-])=C/C=[N+](\[O-])C(C)(C)/C=N/O	-6%
COc1cccc(Cn2c(=O)cnc3cnc(Oc4cccc(Cl)c4)nc32)c1	70%
O=C(NCC1CCCO1)C1CCCCN1S(=O)(=O)c1ccc(F)cc1 (centres undefined)	16%
CN(C(=O)C12CC3CC(CC(C3)C1)C2)C1(C)CCS(=O)(=O)C1 (centres undefined)	19%
COC(=O)CSc1ccccc1C(=O)OC	-4%
O=C(Nc1nc(-c2nc3ccccc3s2)cs1)c1ccc(S(=O)(=O)N2CCOCC2)cc1	65%
C=C(C)Cn1c(CCCNC(=O)CCC)nc2ccccc21	18%
Cc1[nH]nc2c1C1(CCOCC1)C(C#N)=C(N)O2	4%
COC(=O)[C@H](CCSC)NC(=O)NC1CCN(Cc2ccccc2)CC1	2%
CN(Cc1ccccc1)S(=O)(=O)c1ccc2c(c1)OCCO2	10%
C=CCn1c(=O)n(CCC#N)c(=O)n(CCC#N)c1=O	-1%
O=C(NCC1CCNCC1)c1ccncc1	-4%
Cn1c(=O)oc2cc(S(=O)(=O)N3CCCc4ccccc43)ccc21	8%
COC(=O)c1ccc2c(c1)S(=O)(=O)NC(=NCc1ccco1)S2	-7%
CNC(=O)NC1CCCc2ccccc21 (centres undefined)	-3%
Cn1c(=O)[nH]c(=O)c2c1nc(NCCCn1ccnc1)n2Cc1ccc(F)cc1	3%
CC(C)CC(NC(=O)C1CCC(C)CC1)C(=O)N1CCN(c2ccccn2)CC1 (centres undefined)	?
CCC(=O)N1CCCc2cc(S(=O)(=O)N3CCN(c4ccccc4F)CC3)ccc21	94%
CC(C)CN1C(=O)NC(NC(=O)c2ccco2)(C(F)(F)F)C1=O (centres undefined)	1%
C=CCN1C(=O)C(O)(CC(=O)c2c(C)n[nH]c2C)c2cc(Br)ccc21 (centres undefined)	9%
Cc1cc(Cl)c(S(=O)(=O)Nc2ccc3c(c2)OCCO3)cc1OCC(N)=O	-14%
Cc1nn(C)c(C)c1CN(C)C(=O)c1cc2nc(-c3ccco3)cc(C(F)(F)F)n2n1	98%
COc1ccc(-c2cc(N)n(S(=O)(=O)c3c(F)c(F)c(F)c(F)c3F)n2)cc1OC	10%
O=C(COc1ccccc1)Nc1ccccc1N1CCN(c2ccccc2)CC1	-7%
CCOc1ccc(S(=O)(=O)Nc2ccc(S(=O)(=O)N3CCOCC3)cc2)cc1	-11%
CC(C)Oc1cc(O)c2c(c1)OCC=C2CCC(=O)O	18%[5.75 µM]

A different layout for some results above:
Molecule | AmpC inh no det
CC(C)CC(NC(=O)C1CCC(C)CC1)C(=O)N1CCN(c2ccccn2)CC1 (centres undefined) | ?
CCC(=O)N1CCCc2cc(S(=O)(=O)N3CCN(c4ccccc4F)CC3)ccc21 | 94%
CC(C)CN1C(=O)NC(NC(=O)c2ccco2)(C(F)(F)F)C1=O (centres undefined) | 1%
C=CCN1C(=O)C(O)(CC(=O)c2c(C)n[nH]c2C)c2cc(Br)ccc21 (centres undefined) | 9%

Carrying on:
SMILES	AmpC inh no det
C=CCOC(=O)c1[nH]c2c(c1C)C(=O)CC(c1ccco1)C2 (centres undefined)	-2%
COc1ccc(-c2oc3ncn(CCN4CCOCC4)c(=N)c3c2-c2ccc(OC)cc2)cc1	131%
O=C(CN1C2CCCC1CC(NC(=O)c1ccco1)C2)Nc1ccccc1C(F)(F)F (centres undefined)	93%
COC(=O)C1C2c3ccccc3OC1(C)N=c1s/c(=C/c3cn(C)nc3C)c(=O)n12 (centres undefined)	162%
CC(=O)NCCc1ccc(S(=O)(=O)Nc2cccnc2)cc1	2%
CSCCC1NC(=O)N(CC(=O)Nc2ccc(N3CCCCC3)cc2)C1=O (centres undefined)	17%
CCc1ccccc1NC1=NCC(=O)N1C1CCCCC1	25%
COC(=O)c1ccccc1NC(=O)CSc1nc2ccccc2c(=O)[nH]1	-20%
COc1ccc(Cl)cc1NC(=O)c1c(-c2ccccc2)noc1C	-9%
Cc1ccc(-c2noc(C3CCCN(C(=O)c4ccccc4)C3)n2)o1 (centres undefined)	40%
CC1=C(C(=O)NC2CCCC(C)C2C)C2(CCCCC2)OC1=O (centres undefined)	22%
COc1ccc(CCNC2CCN(C)CC2)cc1OC	10%
CCOC(=O)c1cc(-c2nnc(SCC(=O)Nc3ccc(F)cc3)o2)c(C)nc1C	40%
COc1ccccc1N1CCN(C(=O)CSc2ccc3c(C)cc(C)nc3n2)CC1	102%
COC(=O)c1cc(NC(=O)CN2C(=O)CSC2=O)ccc1Cl	-1%
CCCCNC(=O)NS(=O)(=O)c1ccc(C(=O)OC(C)C)o1	-1%
CCN1CCN(CC(=O)Nc2cc(F)ccc2C)CC1	-4%
CC1=C(/C=C\C(=O)O)C(C)(C)CCC1	-4%[5.75 µM]
COc1ccc(C(=O)N(CN2CCCC2=O)c2ccc(C)cc2)cc1	38%
CN1CSC2=C(C#N)C(c3cccc(OCc4ccccc4)c3)CC(=O)N2C1 (centres undefined)	4µM*[single pt active]
Cc1ccc(Cn2ccc(NC(=O)c3cc(-c4ccc(Br)cc4)on3)n2)cc1	-18%
CC(C)CNS(=O)(=O)c1ccc(CCC(=O)Nc2ccc3c(c2)OCO3)cc1	-10%
COc1ccc(C)cc1S(=O)(=O)N(C)CC(=O)N1CCCCCC1	15%
CC(C)(C)n1ncc2c(=O)n(CC(=O)Nc3ccccc3)cnc21	-4%
O=C1NCCCC2c3c(cc(Br)c(O)c3Br)OC12N1CCOCC1 (centres undefined)	-8%
O=C(NC1CCCCCC1)c1c(O)c2ccccc2[nH]c1=O	-4%
CCCn1c2c(c(O)c(C(=O)Nc3ccc(OCC)cc3)c1=O)CCCC2	8%
COc1ccc(C(CNC(=O)c2cc(C)oc2C)N2CCOCC2)cc1 (centres undefined)	24%
BrCCc1ccccc1	-12%
CCOc1ccc(-c2nnc(-c3cccnc3)o2)cc1OCC	58%
COc1ccc(S(=O)(=O)N(C)c2c(C)n(C)n(-c3ccccc3)c2=O)cc1OC	14%
CCCc1cc(=O)[nH]c(SCc2cc(C(=O)OC)c(C)o2)n1	12%
N#Cc1cn(CC(=O)N2CCCC2)c2ccccc12	4%
CCN(CC)CCOC(=O)[C@@H](Cc1cccc2ccccc12)C[C@@H]1CCCO1	28%[12.8 µM]
C=CCn1c(SCCC(=O)O)nc2c1c(=O)n(C)c(=O)n2C	5%
CCOC(=O)c1c(-c2cccs2)csc1NC(=O)CN1CCOCC1	99%
CN1C(=O)N2CN(C3CCCCC3)CN3C(=O)N(C)C1C23 (centres undefined)	-1%
Cn1c(Cn2c(=O)sc3ccccc32)nnc1SCC(=O)N1CCOCC1	4µM*[single pt active]
O=C(Nc1cccnc1)c1ccc2snnc2c1	-16%
O=C(O)CCC(=O)N1CCc2cc(S(=O)(=O)NCc3cccs3)ccc21	7%
CCOc1ccc(C(C)=O)cc1COc1ccc(-n2cnnn2)cc1	35%
COc1ccccc1N1CCN(C(c2cccs2)C(C)NC(=O)c2cccs2)CC1 (centres undefined)	64%
COc1ccc(N(CC(=O)NCc2cccs2)S(=O)(=O)c2c(C)nn(C)c2C)cc1	65%
CC(=O)Nc1cccc(NC(=O)CSc2nnc(Cc3cccn3C)n2-c2ccc(F)cc2)c1	108%
CC(C)C(=O)Nc1c(C(=O)c2ccc(F)cc2)oc2ccccc12	12%
Cc1onc(-c2ccccc2)c1C(=O)Nc1ccc(-c2nnc3n2CCCCC3)cc1	129%
Cc1ccc(C2CC(c3ccc(F)cc3)Nc3nc(N)nn32)cc1 (centres undefined)	70%

Screening results from PubChem BioAssay.

An excerpt, so the mix of outcomes need not match the whole.
